Source: PubChem BioAssay
DUX4 txn inh = DUX4-mediated transcription inhibition; 293T-iDUX4 ZSCAN4-Gaussia luciferase reporter, 24 h; hits give low values; activity change, negative = inhibition, % (test concentration not listed); 0.8% of 37,000 active;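 active means -10% or lower and over 25 points stronger than a control reporter; inconclusive means -10% or lower with a smaller gap; inactive means above -10%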;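 further: 0% = median of neutral control wells and -100% = median of positive control wells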
DUX4 txn inh difference = also measured in DUX4 txn inh; calls as there; Gaussia minus Italica difference, %; measured here: selective DUX4 reporter inhibition;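 worked out from the two reporters; negative = selective loss of the DUX4 reporter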
DUX4 txn inh control = second read-out of DUX4 txn inh, no call of its own (marks repeat the call); activity change, negative = inhibition, %; measured here: Italica tet-on control reporter;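 0 = neutral control and -100 = positive control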
Starred values were filed as active, the others as inactive; ? = inconclusive; nt = no result given; & = joins results of further samples. Only part of the results is shown; the hit share may differ from the screen's.

DUX4 txn inh control	DUX4 txn inh difference	DUX4 txn inh	molecule
2.2&2.0	22.4&10.6	24.6&12.7	C/C=C/c1ccc(C2[C@H]3CNC[C@@H]2N3C(=O)Nc2cccc(Cl)c2)cc1 (stereo partly specified)
-1.5	0.6	-0.9	CN(C)C(=O)C[C@H]1C[C@@H]2c3cc(NC(=O)Nc4ccc(F)cc4)ccc3O[C@@H]2[C@@H](CO)O1
17.4	-1.9	15.5	O=C(C[C@@H]1CC[C@@H]2NC[C@@H](O)COC[C@H]2O1)NCCc1ccccc1
0.1	0.4	0.5	C[C@@H]1CCCCO[C@@H](CN(C)C(=O)CCCN(C)C)[C@@H](C)CN([C@H](C)CO)C(=O)c2cc(NC(=O)Nc3cccc4ccccc34)ccc2O1
1.7	-0.6	1.1	COCC(=O)N1[C@H](C#N)[C@H](c2ccccc2-c2ccc(C)cc2)[C@@H]1CO
5.8	8.6	14.4	CCNC(=O)C[C@H]1CC[C@H]2[C@@H](COC[C@@H](O)CN2Cc2ccccc2F)O1
1.2	-0.5	0.7	C[C@@H]1CCCCO[C@@H](CN(C)S(=O)(=O)c2ccc(F)cc2)[C@H](C)CN([C@@H](C)CO)C(=O)c2cc(N(C)C)ccc2O1
nt	nt	?	CC(C)CC#Cc1ccc([C@H]2[C@@H](CO)N3C(=O)CN(C(=O)c4cccc(F)c4)C[C@@H]23)cc1
1.8	0.7	2.5	CN(C)Cc1cn(CC[C@@H]2CC[C@@H](NC(=O)Cc3cccnc3)[C@H](CO)O2)nn1
-1.4	1.9	0.5	COc1cccc(CNC(=O)C[C@@H]2C=C[C@H](NC(=O)C3CCOCC3)[C@@H](CO)O2)c1

7 compounds out of the list above, ordered by their value in DUX4 txn inh difference, rising:
DUX4 txn inh control	DUX4 txn inh difference	DUX4 txn inh	molecule
17.4	-1.9	15.5	O=C(C[C@@H]1CC[C@@H]2NC[C@@H](O)COC[C@H]2O1)NCCc1ccccc1
1.7	-0.6	1.1	COCC(=O)N1[C@H](C#N)[C@H](c2ccccc2-c2ccc(C)cc2)[C@@H]1CO
1.2	-0.5	0.7	C[C@@H]1CCCCO[C@@H](CN(C)S(=O)(=O)c2ccc(F)cc2)[C@H](C)CN([C@@H](C)CO)C(=O)c2cc(N(C)C)ccc2O1
0.1	0.4	0.5	C[C@@H]1CCCCO[C@@H](CN(C)C(=O)CCCN(C)C)[C@@H](C)CN([C@H](C)CO)C(=O)c2cc(NC(=O)Nc3cccc4ccccc34)ccc2O1
-1.5	0.6	-0.9	CN(C)C(=O)C[C@H]1C[C@@H]2c3cc(NC(=O)Nc4ccc(F)cc4)ccc3O[C@@H]2[C@@H](CO)O1
-1.4	1.9	0.5	COc1cccc(CNC(=O)C[C@@H]2C=C[C@H](NC(=O)C3CCOCC3)[C@@H](CO)O2)c1
5.8	8.6	14.4	CCNC(=O)C[C@H]1CC[C@H]2[C@@H](COC[C@@H](O)CN2Cc2ccccc2F)O1

(more compounds)
DUX4 txn inh control	DUX4 txn inh difference	DUX4 txn inh	molecule
-0.3	-2.8	-3.1	C[C@H](CO)N1C[C@H](C)[C@H](CN(C)C(=O)Nc2ccc(F)cc2)Oc2c(cccc2N(C)C)C1=O
nt	nt	?	COc1ccccc1-c1ccc2c(c1)[C@H]1[C@H](CCN1S(=O)(=O)c1ccccc1F)[C@@H](CO)N2
-0.5	-3.0	-3.5	C[C@@H]1CCCCO[C@H](CN(C)Cc2ccncc2)[C@H](C)CN([C@H](C)CO)C(=O)c2cc(NC(=O)Cc3ccccc3)ccc2O1
-1.8	0.5	-1.3	C[C@@H]1CCCCO[C@H](CN(C)S(=O)(=O)c2ccccc2)[C@@H](C)CN([C@H](C)CO)C(=O)c2cc(NC(=O)Nc3ccc4c(c3)OCO4)ccc2O1
nt	nt	?	COc1ccccc1S(=O)(=O)N(C)C[C@H]1OCc2ccccc2-c2c(n(C)c3ccccc23)C(=O)N([C@H](C)CO)C[C@H]1C
10.0	-11.9	-1.8	C[C@@H]1CN([C@@H](C)CO)C(=O)CCCn2cc(nn2)CO[C@@H]1CN(C)C(=O)Nc1cccc(F)c1
-1.3	-4.3	-5.6	C[C@@H]1CN([C@H](C)CO)C(=O)c2cc(-c3cccc(C(=O)N(C)C)c3)cnc2O[C@@H]1CN(C)S(=O)(=O)c1cccc(F)c1
-0.3	-2.3	-2.5	COc1ccccc1-c1ccc([C@@H]2[C@@H](CO)N(C(=O)C3CCOCC3)[C@H]2C#N)cc1
nt	nt	?	COc1ccc2c3c([nH]c2c1)[C@@H](CO)N(C(=O)c1ccc(F)cc1)CC31CCN(S(=O)(=O)c2cccs2)CC1
2.3	2.1	4.4	COc1cccc(CNC(=O)C[C@@H]2CC[C@H]3[C@@H](COc4ccc(NC(C)=O)cc4C(=O)N3C)O2)c1
-2.5	-2.9	-5.4	C[C@H](CO)N1C[C@H](C)[C@H](CN(C)Cc2ccc(C(F)(F)F)cc2)Oc2c(NC(=O)NC3CCCCC3)cccc2C1=O
1.4	-3.7	-2.3	CNC[C@@H]1OCCCC[C@H](C)Oc2ccc(NC(=O)CCC(F)(F)F)cc2C(=O)N([C@@H](C)CO)C[C@@H]1C
8.5	3.1	11.7	COCC#Cc1ccc([C@@H]2[C@@H](CO)N3C(=O)CN(C(=O)CN4CCOCC4)C[C@H]23)cc1
4.9	0.4	5.3	O=C(C[C@@H]1C=C[C@H](NC(=O)C2CC2)[C@H](CO)O1)NCc1ccncc1
1.6	-4.0	-2.5	COc1ccc(C#Cc2cnc3c(c2)C(=O)N([C@H](C)CO)C[C@@H](C)[C@@H](CN(C)CC2CC2)O3)cc1
3.1	-3.0	0.0	CN(C)C(=O)C[C@@H]1C[C@@H]2c3cc(NC(=O)Nc4ccccc4F)ccc3O[C@@H]2[C@H](CO)O1
nt	nt	?	C[C@@H]1CN([C@H](C)CO)C(=O)c2c(c3ccccc3n2C)-c2ccccc2CO[C@H]1CN(C)Cc1ccc(F)cc1
6.8	-2.7	4.1	O=C1CN(Cc2ccc(F)cc2)C[C@H]2[C@@H](c3ccc(-c4ccccc4)cc3)[C@@H](CO)N12
-6.4	4.1	-2.4	COCC(=O)Nc1ccc2c(c1)[C@H]1C[C@H](CC(=O)N3CCc4ccccc4C3)O[C@H](CO)[C@H]1O2
1.1	0.8	1.9	Cc1ccc(NC(=O)Nc2ccc3c(c2)C(=O)N(C)[C@@H]2CC[C@@H](CC(=O)O)O[C@@H]2CO3)cc1

Quoted at random: 2 records from the list
DUX4 txn inh control	DUX4 txn inh difference	DUX4 txn inh	molecule
1.1	0.8	1.9	Cc1ccc(NC(=O)Nc2ccc3c(c2)C(=O)N(C)[C@@H]2CC[C@@H](CC(=O)O)O[C@@H]2CO3)cc1
6.8	-2.7	4.1	O=C1CN(Cc2ccc(F)cc2)C[C@H]2[C@@H](c3ccc(-c4ccccc4)cc3)[C@@H](CO)N12

New compounds follow
DUX4 txn inh control	DUX4 txn inh difference	DUX4 txn inh	molecule
nt	nt	?	CC=Cc1ccc2n(c1=O)C[C@@H]1[C@@H](CO)[C@H](C(=O)Nc3ccc(-c4ccccc4)cc3)[C@H]2N1C (mixture of isomers)
-1.6	-6.5	-8.1	O=C(C1CCCCC1)N1CC(=O)N2[C@H](CO)[C@@H](c3ccc(-c4ccccc4F)cc3)[C@@H]2C1
7.9	-5.9	1.9	N#C[C@H]1[C@@H](c2ccccc2C2=CCCC2)[C@@H](CO)N1C(=O)C1CCC1
18.1	-5.9	12.2	COc1ccc2c3c([nH]c2c1)[C@H](CO)N(C(C)=O)CC31CN(C(=O)Nc2c(C)noc2C)C1
2.9	2.1	5.0	COc1ccc(NC(=O)Nc2ccc3c(c2)C(=O)N([C@H](C)CO)C[C@H](C)[C@@H](CN(C)S(=O)(=O)c2c(C)noc2C)OCCCC[C@@H](C)O3)cc1
nt	nt	?	COc1ccccc1NC(=O)N1CCCCN2[C@@H](CO)[C@H](c3ccc(-c4cccc(F)c4)cc3)[C@@H]2C1
nt	nt	?	O=C(C1CCCC1)N1CC2(C1)[C@@H](c1ccccc1)[C@H](CO)N2Cc1ccc(Cl)cc1
-3.6	-0.2	-3.9	CCNC(=O)C[C@@H]1CC[C@H]2[C@@H](COC[C@H](O)CN2C(=O)c2ccccn2)O1
6.2	-2.9	3.3	C[C@@H]1CCCCO[C@@H](CN(C)S(C)(=O)=O)[C@H](C)CN([C@@H](C)CO)C(=O)c2cc(N(C)C)ccc2O1
3.6	-1.2	2.4	Cc1noc(C)c1S(=O)(=O)Nc1ccc2c(c1)C(=O)N([C@H](C)CO)C[C@H](C)[C@H](CN(C)Cc1ccc3c(c1)OCO3)O2
-3.0	3.5	0.5	CNC(=O)C[C@H]1CC[C@@H]2[C@H](COc3ccc(NC(=O)c4cnccn4)cc3C(=O)N2C)O1
-0.8	-2.8	-3.6	C[C@H]1CN([C@@H](C)CO)C(=O)CCCn2cc(nn2)CO[C@H]1CN(C)S(=O)(=O)c1ccc(C#N)cc1
2.1	-0.4	1.7	CO[C@H](CN(C)C(=O)Nc1ccc(F)cc1)[C@H](C)CN(Cc1ccccc1Cl)[C@H](C)CO
1.0&23.2	11.6&-5.7	12.7&17.5	C/C=C/c1ccc(C2[C@H]3CNC[C@@H]2N3S(=O)(=O)c2ccccc2C)cc1 (stereo partly specified)
-0.6	-4.1	-4.7	COc1cccc(-c2ccc3c(c2)O[C@H](CN(C)C(=O)C2CCOCC2)[C@@H](C)CN([C@H](C)CO)S3(=O)=O)c1
-0.7	0.2	-0.5	CN1c2ccc(-c3ccccc3)cc2[C@H]2[C@H](CCN2C(=O)c2ccncc2)[C@H]1CO
-15.8	16.2	0.4	CN1C(=O)c2cc(NC(=O)c3cnccn3)ccc2OC[C@H]2O[C@@H](CC(=O)N[C@H]3CCN(Cc4ccccc4)C3)CC[C@H]21
-1.9	1.4	-0.6	C[C@H]1CN([C@@H](C)CO)C(=O)Cc2cc(NC(=O)NC3CCCCC3)ccc2O[C@@H]1CN(C)C(=O)Nc1ccc(C(F)(F)F)cc1
2.3	2.2	4.5	CCCNC(=O)N1C[C@H](O)COC[C@H]2O[C@H](CC(=O)N[C@H]3CCN(Cc4ccccc4)C3)CC[C@@H]21
-3.5	-1.8	-5.4	CCNC(=O)[C@H]1[C@H](CO)[C@H]2Cn3c(ccc(-c4ccc(OC)cc4)c3=O)[C@H]2N1Cc1nccs1
6.2	-2.5	3.7	C/C=C/c1cnc2c(c1)C(=O)N([C@H](C)CO)C[C@H](C)[C@@H](CN(C)C(=O)c1cnccn1)O2
1.6	-9.8	-8.2	COc1ccccc1NC(=O)N1CC[C@@H]2[C@H]1c1cc(C#Cc3ccc(F)cc3)ccc1N(C)[C@@H]2CO
2.5	-6.1	-3.6	CC(C)NC(=O)NCC[C@@H]1CC[C@H](NS(=O)(=O)c2ccc(Oc3ccccc3)cc2)[C@@H](CO)O1
-0.7	0.4	-0.3	O=C(C[C@H]1C[C@@H]2c3cc(NC(=O)Nc4ccccc4F)ccc3O[C@@H]2[C@H](CO)O1)NCc1ccccn1
-7.0	7.0	0.0	CCCC#Cc1ccc([C@H]2[C@@H](C#N)N(C(=O)C3CC3)[C@H]2CO)cc1
-1.8	-6.7	-8.5	O=C(NC[C@@H]1N[C@@H](CO)[C@H]1c1ccc(C2=CCCC2)cc1)c1ccccc1
-11.6	5.9	-5.8	O=C(c1ccncc1)N1CC[C@H]2[C@H](CO)Nc3ccc(-c4ccc(F)cc4)cc3[C@H]21
2.2	-3.5	-1.3	CC(C)NC(=O)Nc1ccc2c(c1)C(=O)N([C@@H](C)CO)C[C@H](C)[C@@H](CN(C)C(=O)Nc1ccc(F)cc1)O2
-0.6	-1.2	-1.8	CCC(=O)N1C[C@H](C)[C@@H](OC)CN(C)C(=O)c2ccc(NC(=O)C3CCOCC3)cc2OC[C@@H]1C
-1.2	4.5	3.4	CO[C@H]1CN(C)C(=O)c2ccc(NC(=O)Nc3c(C)noc3C)cc2OC[C@H](C)N(C)C[C@H]1C
0.2	4.5	4.7	COCC(=O)N(C)C[C@@H]1[C@@H](c2ccc(-c3ccccc3)cc2)[C@H](CO)N1C(C)=O
nt	nt	?	COc1ccccc1NC(=O)N[C@H]1C=C[C@@H](CC(=O)NCc2ccc(Cl)c(Cl)c2)O[C@@H]1CO
-2.6	11.6	9.0	O=C(c1cccnc1)N1CC[C@H]2[C@H](CO)Nc3ccc(C#Cc4cccnc4)cc3[C@H]21
3.7	-2.6	1.1	C[C@H](CO)N1C[C@H](C)[C@@H](CN(C)C)OCc2cn(nn2)CCCC1=O
6.9	-3.8	3.1	COCC(=O)N1C[C@@H]2[C@H](c3ccccc31)[C@@H](CO)N2C(=O)C1CCCC1
-5.4	3.9	-1.5	Cc1noc(C)c1S(=O)(=O)N(C)C[C@H]1Oc2ccc(NS(=O)(=O)c3cn(C)cn3)cc2CC(=O)N([C@@H](C)CO)C[C@H]1C
2.8	-4.7	-1.9	CC(=O)N1CC2(C1)[C@H](c1ccccc1)[C@@H](CO)N2S(=O)(=O)c1ccccc1
0.4	-4.0	-3.6	CN1CCN(C(=O)C[C@H]2CC[C@H]3[C@@H](COC[C@@H](O)CN3C(=O)c3ccccc3F)O2)CC1
-10.3	1.0	-9.3	O=C(Nc1ccccc1F)N1CC(=O)N2[C@H](C1)[C@@H](c1ccc(-c3ccc(F)cc3)cc1)[C@@H]2CO
0.6	-1.1	-0.4	CCCNC(=O)[C@@H]1[C@@H](CO)[C@@H]2Cn3c(cccc3=O)[C@@H]2N1C(=O)CC1CC1
-5.4	-0.4	-5.9	CCC(=O)N1[C@@H](CO)[C@@H](c2ccccc2)C12CN(Cc1cc(F)ccc1F)C2
-4.2	4.8	0.6	C[C@H](CO)N1C[C@H](C)[C@@H](CN(C)Cc2ccccc2F)Oc2cc(C3=CCCCC3)ccc2S1(=O)=O
17.8	-14.4	3.4	CCCC(=O)N1CCC2(CC1)CN(C(=O)C1CCOCC1)[C@@H](CO)c1[nH]c3cc(OC)ccc3c12
10.2	-3.4	6.9	O=C(c1ccncc1)N1CCCCN2[C@H](C1)[C@@H](c1ccc(-c3ccccc3)cc1)[C@@H]2CO
